NPR1 antag = antagonists of human natriuretic peptide receptor Npr1; P16066; HEK293 hNpr1 GloSensor cGMP, ANP-stimulated luminescence; Potency, µM (titrated, usually from 46.3 µM), for the others: top-dose activity change, negative = inhibition, most hits filed as inhibitors; 1.6% of 76,000 active; AID 1347048; active = well fitted inhibition curve with a large enough effect; inconclusive = small, poorly fitted or top-dose-only effect; inactive = no such curve, though single readings can be large or run the other way;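 note: nearly all actives have a fitted effect of over 60% in size; nearly all hits also lower the signal before the agonist is added; a reference antagonist and vehicle were the controls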
Target sequence (P16066 whole entry, looked up): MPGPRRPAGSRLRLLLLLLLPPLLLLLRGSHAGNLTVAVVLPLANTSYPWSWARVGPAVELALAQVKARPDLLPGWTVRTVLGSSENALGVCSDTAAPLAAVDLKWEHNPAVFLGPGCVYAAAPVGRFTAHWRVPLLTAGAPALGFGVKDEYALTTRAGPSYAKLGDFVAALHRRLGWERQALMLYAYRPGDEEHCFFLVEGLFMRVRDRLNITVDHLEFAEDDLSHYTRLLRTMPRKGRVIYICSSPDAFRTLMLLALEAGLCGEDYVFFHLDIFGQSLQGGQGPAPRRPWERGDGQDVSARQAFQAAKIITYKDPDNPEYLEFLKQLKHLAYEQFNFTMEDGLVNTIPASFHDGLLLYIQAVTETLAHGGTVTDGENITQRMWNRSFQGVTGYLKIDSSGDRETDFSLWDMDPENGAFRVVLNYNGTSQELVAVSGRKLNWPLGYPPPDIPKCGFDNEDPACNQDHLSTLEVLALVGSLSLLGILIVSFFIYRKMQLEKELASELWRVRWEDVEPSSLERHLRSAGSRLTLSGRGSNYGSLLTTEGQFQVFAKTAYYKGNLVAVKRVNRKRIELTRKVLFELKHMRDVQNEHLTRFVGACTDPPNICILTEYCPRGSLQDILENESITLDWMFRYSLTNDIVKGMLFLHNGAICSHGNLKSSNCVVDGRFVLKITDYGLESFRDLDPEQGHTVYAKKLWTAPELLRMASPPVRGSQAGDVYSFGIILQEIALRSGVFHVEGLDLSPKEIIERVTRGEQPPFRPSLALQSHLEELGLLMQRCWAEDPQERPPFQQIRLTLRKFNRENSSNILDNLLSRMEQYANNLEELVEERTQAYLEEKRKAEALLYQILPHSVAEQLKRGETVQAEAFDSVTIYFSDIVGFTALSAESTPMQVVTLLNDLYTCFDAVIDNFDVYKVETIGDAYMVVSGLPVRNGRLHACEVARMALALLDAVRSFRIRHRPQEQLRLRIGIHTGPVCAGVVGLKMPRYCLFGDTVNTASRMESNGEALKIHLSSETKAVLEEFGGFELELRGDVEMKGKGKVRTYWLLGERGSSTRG
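Compound pre-incubated 30 min at room temperature on GloSensor-loaded HEK293 cells stably carrying hNpr1 and the pGS-40F cGMP biosensor. Stimulation uses hNppA at 0.1 nM final; luminescence is taken at baseline and 20 min post-agonist.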
An asterisk follows results filed as active; u = inconclusive; [ ] = another dose, or the depositor's remark. % is set by controls: 0 for no effect and ±100 for the full control effect; potency is the fitted concentration of half-maximal effect.

SMILES	NPR1 antag
COc1ccc(S(=O)(=O)N2CCOC[C@H](Oc3cccnc3)C2)cc1	-23%[70.6 µM]
Cc1ccc(CN2C(=O)NC3(CCCN(C(=O)c4cccc(Cl)c4)C3)C2=O)cc1 (stereo unspecified)	0%
CN1CCc2[nH]nc(C(=O)N3CCC4(CC3)c3nc[nH]c3CCN4C)c2C1	-4%
O=C1NC(C(=O)Nc2ccc3c(c2)OCCO3)Cn2cccc21 (stereo unspecified)	1%
CCCC1c2nccn2CCCN1C(=O)CCc1c(C)nn(C)c1C (stereo unspecified)	6%
CN1C(=O)C(CC(=O)NCC2CCN(Cc3ccc(F)cc3)CC2)=C2CCCCC21 (stereo unspecified)	13%
Cc1noc(C)c1C(=O)N1C[C@@H](CO)[C@H](c2ccncc2)C1	-7%
O=[S+]1([O-])NCC2(CCCN(Cc3ccc(C(F)(F)F)cc3)C2)Nc2ccccc21 (stereo unspecified)	-17%
COc1cccc(C(=O)N2CCCC(Cc3noc(-c4ccncc4)n3)C2)c1 (stereo unspecified)	-3%
COCCc1noc(CN(C)c2cc(C3CC(O)C3)nc(C)n2)n1 (stereo unspecified)	2%
Cc1ccc(NC(=O)Cn2c(=O)c(-c3noc(C)n3)c3n(c2=O)CCCC3)c(Cl)c1	0%
CCn1nc(C)c(CCN(C)C(=O)Cn2nc3n(c2=O)CCC(N)CC3)c1C (stereo unspecified)	4%
CC(C)N1CC2(C1)C(=O)N(CCCN1CCCC1=O)C(=O)[C@@H]1C[C@@H](O)CN12	-1%[70.6 µM]
CCn1nc(C)c(CNC(=O)C(c2ccc(F)cc2)N(C)C)c1C (stereo unspecified)	0%
Cc1c(CC(=O)N2CCOCC2)c2c(n1Cc1ccccc1F)CCCC2=O	5%
CC1(CNCc2ccccc2)COc2ccc(C(=O)Nc3cccc(Cl)c3)cc2N1 (stereo unspecified)	-17%[70.6 µM]
COc1ccc(CCc2nc3nccc(-c4ccccn4)n3n2)cc1	1%
CN(C1CCSCC1)C1CCc2nn(C)c(=O)n2CC1 (stereo unspecified)	4%
Cc1ccsc1C(=O)N1CCCC(c2noc(COc3ccccc3F)n2)C1 (stereo unspecified)	-29%
Cc1nc2c(c(-c3ccc(Cl)cc3)n1)CCN(C(=O)c1ccccc1F)CC2	0%
CCOc1cccc(CN2C[C@@H]3C(=O)N(Cc4ccc5c(c4)OCO5)C(=O)[C@@H]3C2)c1	-24%
O=C(c1ccoc1)N1CCN(c2nnc3ccccn23)CC1	11%
COCCNC(=O)C1(C)CCc2cnc(Nc3ccccc3)nc21 (stereo unspecified)	5%[70.6 µM]
N#Cc1ccc(C(=O)N2CCCCCCNC(=O)CC2)cc1	2%
O=C(COc1ccc(F)cc1)N1CC(Oc2ccc(-c3nc(-c4ccccc4)no3)cc2)C1	-3%

An excerpt of these results, as a markdown table:
| compound | NPR1 antag |
| --- | --- |
| COc1ccc(S(=O)(=O)N2CCOC[C@H](Oc3cccnc3)C2)cc1 | -23%[70.6 µM] |
| Cc1ccc(CN2C(=O)NC3(CCCN(C(=O)c4cccc(Cl)c4)C3)C2=O)cc1 (stereo unspecified) | 0% |
| CN1CCc2[nH]nc(C(=O)N3CCC4(CC3)c3nc[nH]c3CCN4C)c2C1 | -4% |

Copied from the list.
`Cc1ccsc1C(=O)N1CCCC(c2noc(COc3ccccc3F)n2)C1` (stereo unspecified) – NPR1 antag = -29%
`N#Cc1ccc(C(=O)N2CCCCCCNC(=O)CC2)cc1` – NPR1 antag = 2%

Continuation.
SMILES	NPR1 antag
COCCn1c(=O)c2c(n1Cc1ccccc1)CN(Cc1ccc3[nH]ccc3c1)CC2	-1%[70.6 µM]
Cc1nc(CN2C(=O)OC3(CCN(C(=O)c4scnc4C)CC3)C2(C)c2ccccc2)cs1 (stereo unspecified)	-1%
Cn1ccc(Nc2nccc3c(=O)cc(-c4cn[nH]c4)oc23)n1	0%[70.6 µM]
CCc1ccc(CN2CCC(Oc3ccc4ccccc4c3)(C(=O)O)CC2)nc1	11%
CC(=O)N1CCN(C(=O)c2ccc(-c3ncc4cnc(-c5cccc(F)c5)cn34)cc2)CC1	3%
Cn1cc(CN2C[C@@H]3C[C@H](C2)c2ccc(NC(=O)c4cccs4)c(=O)n2C3)c2ccccc21	-17%
CN(C)C(=O)c1cccnc1CCC1COc2ccccc2O1 (stereo unspecified)	0%
CC(C)CC1=NC2(CCN(C(=O)c3cccc(N(C)C)c3)CC2)C(=O)N1	2%
Cc1cc(CN(C)C(C)c2cccs2)no1 (stereo unspecified)	0%[70.6 µM]
Fc1ccc(-c2cc(CC3(NCc4ccc(OC(F)(F)F)cc4)COC3)no2)cc1	u
COc1cc(C(=O)N2CCN(c3cc(-c4cccs4)[nH]n3)CC2)cc(OC)c1OC	-1%
CCc1nc(C)sc1C(=O)N1CCCC(c2[nH]ncc2-c2ccccc2)C1 (stereo unspecified)	-3%
O=C1CCNCCCCCCN1	-8%
COc1ccc(NC(=O)N[C@H]2CO[C@H]3[C@@H]2OC[C@@H]3n2cc(CC3CCCCC3)nn2)cc1	7%
c1ncnc(NCC2(N3CCOCC3)CCCCCC2)n1	-1%
O=C(O)CCCNC(=O)Cn1nc2c(cc1=O)CCCC2	1%
Cc1ccccc1-n1cc(CN(C)C(=O)CN2CC3(CCCC3)CC2=O)cn1	-2%
Cc1nn(C)c2nc(NCCCN3CCNC(=O)C3)sc12	2%
CC(C)OCC(=O)N1CCN(c2nc(-c3ccccc3)nc3c2CCC3)CC1	5%
CCN(Cc1ccccc1)C(=O)Cn1ccn2nc3c(c2c1=O)CCCC3	5%
CCNC(=O)N[C@H]1[C@H](O)[C@H](O)C[C@@H]1c1cncnc1	-1%[70.6 µM]
CCCSc1ncc(CN2CCCC(c3nnc(CN(C)C)n3C)C2)cn1 (stereo unspecified)	4%
Cn1c(Cn2ccnc2)nnc1C1CCCN(C(=O)Cc2ccccc2F)C1 (stereo unspecified)	10%
Cc1nn(C)c(C)c1S(=O)(=O)N1CCC(c2ncc(C)n2C(C)C)C1 (stereo unspecified)	1%
CNC(=O)Nc1ccc(C2(C(=O)N3CCN(c4ccc(Cl)cc4)CC3)CCC2)cc1	-4%
The list continues.
SMILES	NPR1 antag
Cc1cc(=O)[nH]c(NCCNC(=O)[C@H]2CCC[C@@H](O)C2)n1	-6%
O=C(CCC1CCN(S(=O)(=O)c2ccccc2)CC1)NCc1cccc(F)c1	-12%
CN1[C@H](C(=O)O)C[C@H](C(=O)NCCCO)[C@@H]1c1ccccc1F	7%
N#Cc1cccc(CN2CCc3ncc(C(=O)NCCOc4ccccc4)n3CC2)c1	u
O=C1Nc2ccc(-c3ccc(Cl)cc3)cc2C(=O)N2CCN(C(=O)c3cccs3)C[C@H]12	1%
CC(=O)N1CCC(N[C@@H]2CO[C@H](CNC(=O)c3cccs3)[C@H]2O)CC1	0%[70.6 µM]
CN(CCc1ccccn1)C(=O)C1CCCN(S(=O)(=O)c2ccccc2)CCC(=O)NCC1 (stereo unspecified)	-10%
COC(=O)N(C)C1CCc2ccccc21 (stereo unspecified)	22%[70.6 µM]
Cc1noc(C)c1S(=O)(=O)N(C)C1CCc2nn(CC3CC3)c(=O)n2CC1 (stereo unspecified)	0%
CCNC(=O)N[C@@H]1C=C[C@@H](c2c(C)nn(CCC#N)c2C)C1	-4%[70.6 µM]
CCOC(=O)CN1CCN(C(=O)CCc2cc3ccc(C)cc3[nH]c2=O)CC1	-14%
O=c1c2c(CO)c(-c3ccc(F)cc3)nn2ccn1Cc1ccc(F)cc1	u
O=C1CCC2(CCCO2)CCN1Cc1c(F)cccc1F (stereo unspecified)	3%
O=C1c2c(nc(COc3ccc(F)cc3)n2Cc2ccccc2)NCCN1Cc1ccccc1	u
CCc1noc(-c2ccn3c(CNC(=O)COc4ccc(F)cc4)nnc3c2)n1	-4%
CCOC(=O)CCNC(=O)N1CCOc2ccc(CN3CCc4ccccc4C3)cc2C1	3%
COc1cccc(CNC(=O)C2(C)CCCCC(=O)N2)c1OC (stereo unspecified)	-11%
Cc1cn2nc(C(=O)N3CCC(C(=O)NCc4cccnc4)CC3)cc2c(=O)[nH]1	3%
CCOc1ccccc1CN1CCC2(CC1)CN(C(C)=O)CC2COC (stereo unspecified)	5%
CCCc1cc(C(=O)N[C@H]2CCOC[C@H]2C2CCOCC2)cs1	-1%
CNC(=O)[C@@H]1CN(C(=O)C2CC=CCC2)C[C@H]1c1nc(COC)no1 (stereo partly specified)	-7%
COC(=O)[C@@H](Cc1cccnc1)NC(=O)[C@@H]1CN(C(=O)c2cccc(F)c2)CCN1C(=O)c1cccs1	1%
COc1cc(CNC(=O)c2cccc3c2CCN3C(=O)C2CC2)cc(OC)c1	-12%
CCS(=O)(=O)N1CCC2(CC1)CN(Cc1ccc(OC)cc1)C2=O	-3%
O=C(c1cc(C2CC2)[nH]n1)N1CCC2(CC1)NC(=O)N(c1ccc(F)cc1)N2	-9%
Carrying on.
SMILES	NPR1 antag
O=C([C@H]1C[C@H](Oc2cccnc2)CN1C(=O)NCc1ccc(F)cc1)N1CCOCC1	-12%
CCC(CC)C(=O)Nc1ccc([C@@H](O)[C@H]2COCC(=O)N2Cc2ccccn2)cc1	1%[70.6 µM]
COc1cc(OC)cc(C(=O)N[C@@H]2CN(C3CCOCC3)C[C@H]2CN(C)C)c1	6%
Cn1c2c(c3cc(F)ccc31)CN(C(=O)Nc1cccc(F)c1)CC2	-15%
COc1ccc(OCC2(C)COc3ccc(C(=O)N4C[C@@H](C)O[C@@H](C)C4)cc3N2)cc1 (stereo partly specified)	-14%[70.6 µM]
CCN(Cc1ccncc1)C(=O)CC1CCCN(c2cnn(CCOC)c(=O)c2)C1 (stereo unspecified)	-19%
c1ccc(-c2cc3c(cn2)CN(Cc2c[nH]c4ccccc24)CCN3)cc1	-9%[70.6 µM]
CN(Cc1ccc(F)cc1)Cc1ccc(C(F)(F)F)cc1	24%[70.6 µM]
Cc1ccsc1C(=O)N1CCC(c2nc(-c3ccccc3)no2)C1 (stereo unspecified)	u
COc1ccc(C(=O)Nc2ccnn2C2CCN(C(=O)CN)CC2)cc1	8%
CCCN(CC1CCOC1)S(=O)(=O)c1ccc(Br)s1 (stereo unspecified)	-2%
O=C(Cc1cccnc1)NCC(=O)N1CCCCCCNC(=O)CC1c1ccccc1 (stereo unspecified)	2%
Cn1cc(-c2ccc(Cl)cc2)c2nc(CNc3ccccc3)cn2c1=O	-6%[70.6 µM]
CCN(CC)CC(=O)N1CCC(C(=O)Nc2ccc(-c3nc4ccccc4o3)cc2)CC1	1%
COCCNC(=O)[C@@H]1CCC[C@@H](NC(=O)c2cncnc2)CN(C)C(=O)C1	1%[70.6 µM]
CCc1cc(NCC(c2ccc(C)o2)N2CCOCC2)n2nccc2n1 (stereo unspecified)	-11%
Cc1ccc2c(C(=O)NCCN3CCCCC3)cc(NC(=O)C(C)C)cc2n1	-2%
O=C(NCc1cc(F)ccc1F)C1Cn2cccc2C(=O)N1Cc1ccccc1 (stereo unspecified)	0%
CC(C)c1nncn1C1CCN(S(=O)(=O)c2ccc(Br)cc2)CC1	2%
O=C(c1ccc(OC2CCN(C(=O)C3CC3)CC2)nc1)N1CCOCC1	1%
CC(C)(C)n1nnnc1C1CC2(CCOCC2)C(=O)N1Cc1ccco1 (stereo unspecified)	-5%
CC(=O)Nc1ccc(-n2ccnc2-c2ccc(O)c(CN(C)C)c2)cc1	3%
CCCCNC(=O)c1cc(NC(=O)CC)cc2nc(C)ccc12	3%
O=C(NCCc1ccccc1)N1CCC2(CC1)CC(OCC1CC1)CCO2 (stereo unspecified)	-10%
Cc1ncccc1C(=O)N1C[C@@H](COc2ccccc2)[C@H](C(N)=O)C1	4%

In another format: entries from further up.
| Molecule | NPR1 antag |
| --- | --- |
| COCCc1noc(CN(C)c2cc(C3CC(O)C3)nc(C)n2)n1 (stereo unspecified) | 2% |
| Cc1ccc(NC(=O)Cn2c(=O)c(-c3noc(C)n3)c3n(c2=O)CCCC3)c(Cl)c1 | 0% |
| CCn1nc(C)c(CCN(C)C(=O)Cn2nc3n(c2=O)CCC(N)CC3)c1C (stereo unspecified) | 4% |
| CC(C)N1CC2(C1)C(=O)N(CCCN1CCCC1=O)C(=O)[C@@H]1C[C@@H](O)CN12 | -1%[70.6 µM] |
| CCn1nc(C)c(CNC(=O)C(c2ccc(F)cc2)N(C)C)c1C (stereo unspecified) | 0% |
| Cc1c(CC(=O)N2CCOCC2)c2c(n1Cc1ccccc1F)CCCC2=O | 5% |

Next part
SMILES	NPR1 antag
CCn1cc2c3c(cccc31)CN(C(=O)c1ccc(OC)cc1)CC2	-16%
CCC(=O)N1CCCCCCNC(=O)CC1c1ccccc1 (stereo unspecified)	1%
COc1cccc(CN2CCOC3(CCN([S+](=O)([O-])c4c(C)noc4C)CC3)C2=O)c1	-4%
Cc1ccc(NC(=O)c2nnn3c2COC(c2ccc(F)cc2)C3)c(Br)c1 (stereo unspecified)	0%
O=C(c1cccnc1)N1CCCCCCn2c(nnc2-c2ccc(F)cc2)CC1	-14%
O=C(N1CCC2(CCCCO2)CC1)C1(c2ccccc2)CC1	2%
CC[C@H]1CN(C(=O)Nc2cccc(C(F)(F)F)c2)CC[C@H]1CC(=O)N(C)CC#N	-13%[70.6 µM]
O=C(Nc1nc2c(s1)CCC2)C1CC(=O)N(c2n[nH]c3cc(Br)ccc23)C1 (stereo unspecified)	-27%
Cn1cc(CC(=O)N2CCCc3ncc(C(=O)N4CCCC[C@@H]4Cc4ccccc4)cc32)c2ccccc21	-29%
O=C(NC[C@H]1OC[C@@H](NCc2ccccc2)[C@@H]1O)c1ccccc1	2%[70.6 µM]
O=C(c1ccccc1F)N1CC(Oc2cccc(-c3nc(-c4ccccc4)no3)c2)C1	2%
C[C@@H]1CN(C(=O)Cn2ccc(=O)[nH]c2=O)C[C@@]1(O)C1CCC1	0%

Bioassay records deposited in PubChem by National Center for Advancing Translational Sciences (NCATS).

Some of the compounds tested; the hit share may differ from the screen's.
